# Vif A3G: HIV-1 Vif–A3G interaction blockers – biochemical, TR-FRET, GST-Vif 1-94, biotin-A3G peptide, dose response retest, primary screen (AID 1117319). TR-FRET GST-Vif / biotin-A3G peptide binding; higher % means a stronger effect; test concentration not given here; strong numbers were not always called active. one-dose inhibition, %; IC50 in µM for titrated hits. hit rate 0.57% among 260,000;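 active means above the screen mean plus three standard deviations and confirmed in dose response; inconclusive means results disagree or hit not tested in dose response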;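 further: Vif residues 1-94 fused to GST binding biotinylated APOBEC3G peptide 110-148; 0% = full assay without inhibitor and 100% = GST in place of GST-Vif; retest series ran down from 100 µM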
# UCH37 inh: human UCH37 deubiquitinating enzyme inhibition. hit rate 0.33% among 330,000. purified proteasome/UCH37, Ub-AMC cleavage fluorescence. inhibition, % (no concentration beside the values);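 active means mean of two replicates above 20%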;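 further: 0% = compound-free wells with enzyme and 100% = wells lacking proteasome; stock transfer was 100 nL into about 20 µL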
#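 system = Proteasome-associated human UCH37 deubiquitinase | amount = 0.15 nM proteasome as dispensed | medium = pH 7.4 Tris-HCl (50 mM) with ovalbumin, ATP-MgCl2, DTT | incubation = 30 min preincubation with enzyme, 25 min cleavage at room temperature | detection = AMC fluorescence 355/460 nm | read-out basis = percent inhibition | controls = no-proteasome and no-compound wells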
# FGF22 binding: FGF22 (human) thermal shift binding; recombinant FGF22 thermal shift, SYPRO orange fluorescence; percent of sucrose octasulfate shift, DMSO zero; calls only at 9.99 µM; hit rate 1.5% among 340,000; AID 651658;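 active means melting point raised past a set limit in the mean and every replicate; inconclusive means no clear call; three in four hits are not shown here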
# AF4-AF9 inh: inhibitors of human MLL-AF4/AF9 interaction; P42568; AlphaScreen, biotin-AF4 peptide binding to FLAG-AF9; inhibition, % at 10 µM; hit rate 0.47% among 350,000; AID 651704;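 active means every replicate reaching a set inhibition limit, whatever the replicate mean, cut at about 25% in these data; inconclusive means mean inhibition reaches that limit but some replicates miss it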;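 further: 0% = plate neutral control median and 100% = total signal loss; the record names both 10 and 1 µM as test concentration; the first replicate is given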
# Target sequence (P42568 whole entry, looked up): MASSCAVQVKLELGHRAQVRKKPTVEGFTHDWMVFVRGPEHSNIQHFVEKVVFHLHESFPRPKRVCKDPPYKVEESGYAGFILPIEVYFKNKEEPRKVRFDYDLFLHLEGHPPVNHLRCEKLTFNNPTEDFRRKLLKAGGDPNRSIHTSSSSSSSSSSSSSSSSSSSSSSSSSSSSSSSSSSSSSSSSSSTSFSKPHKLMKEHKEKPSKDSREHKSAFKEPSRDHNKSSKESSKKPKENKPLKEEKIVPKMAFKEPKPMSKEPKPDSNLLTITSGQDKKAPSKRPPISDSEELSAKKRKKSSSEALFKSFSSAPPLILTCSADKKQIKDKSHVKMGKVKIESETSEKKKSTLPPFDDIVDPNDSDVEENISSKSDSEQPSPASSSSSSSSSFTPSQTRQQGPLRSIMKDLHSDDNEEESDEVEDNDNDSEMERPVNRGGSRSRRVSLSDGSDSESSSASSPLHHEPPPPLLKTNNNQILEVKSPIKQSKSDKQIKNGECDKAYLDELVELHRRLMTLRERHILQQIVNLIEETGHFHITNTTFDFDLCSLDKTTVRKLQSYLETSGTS
# RanGTP-Imp inh: inhibitors of RanGTP-importin-beta interaction, primary screen, biochemical, FRET, CFP-Ran, YFP-importin-beta, homogeneous; AID 2216; inhibition, % (test concentration not listed); cell-free CFP-Ran/YFP-importin-beta FRET ratio; hit rate 1.1% among 300,000;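 active means most replicates above 15%; inconclusive means exactly half above 15%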;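 further: 0% = DMSO wells and 100% = Ran loaded with GDP instead of GTP; wells of about 40 µL received 100 nL stock; the first replicate is given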
# E coli growth: inhibitors of Escherichia coli growth | AID 1053175 | OD600, 23 h; stronger effect = lower value | OD600 absorbance (no concentration beside the values) | hit rate 0.21% among 330,000;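 active means OD600 absorbance below the run mean of sample wells minus 3.6 SD, in any replicate, cut at about 0.56 in these data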;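 further: stock transfer was 300 nL into about 60 µL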
# HNF4A DNA FP: change in binding of human HNF4 alpha to DNA | P41235 | hit rate 0.3% among 360,000 | HNF4a-FITC DNA binding, fluorescence polarization, 1 h | activity change, % at 10 µM; in the data active means activity change above about 30%, passing the limit was not always enough;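 further: controls were the assay level and a saturating level of protein; the project sought stronger binding though the title names inhibitors; some compounds called inactive have numbers as strong as hits; positive values seem to mean higher polarization but the record does not say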
# Target sequence (P41235 whole entry, looked up): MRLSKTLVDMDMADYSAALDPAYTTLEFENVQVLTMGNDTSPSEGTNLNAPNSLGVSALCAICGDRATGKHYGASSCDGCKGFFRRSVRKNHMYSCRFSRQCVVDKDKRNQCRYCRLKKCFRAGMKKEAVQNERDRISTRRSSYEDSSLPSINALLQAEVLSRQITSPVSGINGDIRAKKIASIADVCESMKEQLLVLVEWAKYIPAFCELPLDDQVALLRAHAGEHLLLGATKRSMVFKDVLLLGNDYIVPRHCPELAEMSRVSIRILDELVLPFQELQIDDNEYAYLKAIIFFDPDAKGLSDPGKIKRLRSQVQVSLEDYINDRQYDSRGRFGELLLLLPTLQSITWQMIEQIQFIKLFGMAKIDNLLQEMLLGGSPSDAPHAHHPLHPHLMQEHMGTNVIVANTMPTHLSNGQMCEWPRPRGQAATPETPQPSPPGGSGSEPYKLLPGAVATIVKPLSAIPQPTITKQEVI
# Active calls of the source: *; i = inactive; ? = inconclusive; · = not tested or not shown; & = joins results of further samples. Some of the compounds tested; rates above refer to the full screens.
Structure	Vif A3G	UCH37 inh	FGF22 binding	AF4-AF9 inh	RanGTP-Imp inh	E coli growth	HNF4A DNA FP
O=C(CN1CCN(Cc2ccc(Cl)cc2)C1=O)N1CCC2(CC1)OCCO2	-0.8%	5.2	·	·	-0.8	0.774	1.0
C[N+]1(C)[C@@H]2CC[C@H]1CC(OC(=O)C(c1ccccc1)c1ccccc1)C2 (stereo partly specified)	0.5%	1.6	i	-3.7	-3.6	0.668	0.8
CC(=NCCN1CCCCC1)c1c(O)n(-c2ccccc2)c(=O)[nH]c1=O	12.3%	4.8	i	-1.3	-0.1	0.684	3.2
O=C(CCS(=O)(=O)c1ccc(Br)cc1)N1CCC2(CC1)OCCO2	22.7%	2.6	·	·	·	0.701	4.1
CCCCn1c(O)c(C(CC)=NCCN2CCOCC2)c(=O)[nH]c1=O	6.3%	2.8	·	·	5.9	0.706	1.6
O=C(c1ccc(Cl)cc1)N1CCC2(CC1)OCCO2	·	1.0	i	0.4	4.6	0.671	1.2
O=[N+]([O-])c1ccccc1-c1cc(-c2ccccc2)cc(-c2ccccc2)[n+]1Cc1ccccc1Cl	·	6.6	i	20.1	-0.9	0.644	·
O=[N+]([O-])c1ccc(-c2ccccc2)c([As](=O)(O)O)c1	-9.7%	1.4	i	-5.4	-0.7	0.694	0.5
Cc1cccc(OCCn2cccc2/C=C2/C(=O)NC(=O)N(Cc3ccco3)C2=O)c1	4.18µM*	1.0	i	·	2.6	0.61	-4.5
CC(=O)N1CCN(CCN=Cc2c(O)n(-c3ccc(C)cc3)c(=S)[nH]c2=O)CC1	6.6%	7.4	i	0.1	-2.2	0.725	0.1
CC1CN(c2ccc([N+](=O)[O-])cc2Cl)CCN1 (stereo unspecified)	4.1%	8.2	·	·	-1.9	0.689	8.1
COC(=O)C1=C(c2cc3ccccc3o2)C[C@@H]2CC[C@H]1N2C(=O)N1CCC(O)CC1	·	0.4	i	0.5	0.2	·	0.8
C[N+]1(C)C2CCC1CC(OC(=O)c1ccccc1)C2 (stereo unspecified)	13.5%	3.4	i	-5.4	2.5	0.702	-1.9
CC(C)(C)c1ccc(O)c(CN2CCN(c3ccccc3)CC2)c1	0.7%	4.3	·	·	-0.6	0.729	2.2
O=c1c2ccccc2nc(CN2CCCCCC2)n1-c1ccc(F)cc1	4.4%	2.3	·	·	-2.9	0.692	5.7
COC(=O)C1=C(c2ccc(F)cc2OCc2ccccc2)C[C@@H]2CC[C@H]1N2C(=O)N1CCC(C)CC1	·	-1.5	·	·	·	0.772	5.7
O=c1c2ccccc2nc(/C=C/c2ccccc2)n1-c1ccccc1O	-0.7%	-3.0	i	13.8	2.0	0.605	3.8
CN1C(=O)C(=Cc2ccc(Sc3ccccc3)o2)C(=O)N(C)C1=S	·	3.1	i	-14.5	-3.0	0.682	-0.5
C=CCn1c(O)c(C(CC)=Nc2ccc(N(C)C)cc2)c(=O)[nH]c1=O	57.6µM*	1.5	i	-3.9	-1.6	0.655	1.1
O=C(c1cc(F)ccc1F)C1CCCN(Cc2cccc(Cl)c2)C1 (stereo unspecified)	1.6%	1.6	i	-0.2	2.2	0.674	-0.6
O=C1NC(=O)C(=Cc2coc3ccccc3c2=O)C(=O)N1	8.2%	-24.6	i	-3.7	-0.8	0.62	-2.7
CCOc1ccc(N=C2SCCCN2C)cc1	11.4%	1.6	·	·	-2.2	0.705	0.5
CCn1c(O)c(C=NCCN2CCOCC2)c(=O)n(CC)c1=S	-2.0%	10.6	i	-2.3	7.2	0.678	3.3
CCOC(=O)C1(CCOc2ccccc2)CCN(Cc2cccc(O)c2)CC1	·	5.0	i	3.6	?	0.702	2.0
COc1cccc(-n2c(C)nc3ccccc3c2=O)c1	7.2%	0.4	·	·	?	0.694	0.1
CC(C)N1CCC2(CC1)NC(CO)(CO)CO2	?	1.4	·	·	-2.0	0.714	-2.5
COc1ccccc1OCC(=O)N1CCCC(N2CCN(c3ccc(F)cc3)CC2)C1 (stereo unspecified)	·	5.6	i	2.1	-1.7	0.731	8.5
O=[N+]([O-])c1ccc(N(CCO)CCO)c2c1no[n+]2[O-]	0.3%	·	i	2.1	·	·	-26.4
COc1ccc2c3c1OC1C(O)C=CC4[C@@H](C2)N(C)CC[C@]314 (stereo partly specified)	·	3.7	i	·	·	0.755	1.3
O=C1/C(=C\c2cc3c(cc2Br)OCO3)N2CCC1CC2	1.5%	3.1	·	·	-1.0	0.652	3.3
CC1CN=C(NCCc2ccccc2)S1 (stereo unspecified)	17.6%	3.9	i	0.1	1.8	0.67	4.4
CN1CCCN(c2ccc([N+](=O)[O-])nc2)CC1	·	5.2	i	-0.6	-4.9	0.643	3.2
CN1C(=O)/C(=C\c2ccc(N3CCCCC3)o2)C(=O)NC1=S	13.3%	21.8*	·	·	6.1	0.667	181.5
COc1ccc2c(c1)NP(=S)(Oc1ccccc1)N2 (stereo unspecified)	13.1%	3.0	i	1.0	-2.2	0.641	-7.8
FC(F)(F)/C(=N\P(=S)(N1CCOCC1)N1CCOCC1)N1CCOCC1	-4.6%	·	i	-53.2	0.4	·	-0.5
Cc1cccc(CNCCc2ccccc2)n1	?	4.8	i	6.9	-4.7	0.686	1.8
Cc1ccc(O)c(C(=O)c2cc(C(=O)NCc3ccccc3)c(=O)n(Cc3ccccc3)c2)c1	·	-1.5	i	-0.1	3.6	0.719	1.6
CC(C)c1c(CN(C)C(C)Cc2ccccc2)n(C)n(-c2ccccc2)c1=O (stereo unspecified)	·	3.0	i	-1.6	·	0.672	5.2
CCOc1cc2c(cc1OCC)-n1cccc1C(c1ccccc1OC)NC2 (stereo unspecified)	5.3%	4.3	i	17.6	-6.3	0.683	0.2
S=C(NCCc1ccccc1)NCCc1cnc[nH]1	·	1.4	i	1.6	1.0	0.681	4.1

# Some of the entries so far, with values under each structure.
# Fields – Vif A3G	UCH37 inh	FGF22 binding	AF4-AF9 inh	RanGTP-Imp inh	E coli growth	HNF4A DNA FP
Cc1cccc(OCCn2cccc2/C=C2/C(=O)NC(=O)N(Cc3ccco3)C2=O)c1
  4.18µM*	1.0	i	·	2.6	0.61	-4.5
Cc1cccc(CNCCc2ccccc2)n1
  ?	4.8	i	6.9	-4.7	0.686	1.8
COc1cccc(-n2c(C)nc3ccccc3c2=O)c1
  7.2%	0.4	·	·	?	0.694	0.1

# Continuation:
Structure	Vif A3G	UCH37 inh	FGF22 binding	AF4-AF9 inh	RanGTP-Imp inh	E coli growth	HNF4A DNA FP
CN1C(=O)C(=Cc2ccccc2Oc2ccc(Cl)c(F)c2)C(=O)N(C)C1=O	2.2%	4.0	·	·	-1.0	0.795	-3.2
C=CCn1c(O)c(C=Nc2c(C)n(C)n(-c3ccccc3)c2=O)c(=O)[nH]c1=O	2.1%	20.4*	i	0.4	-2.6	0.654	5.2
CCOc1ccc(N2C(=O)/C(=C\c3cccs3)C(=O)NC2=S)cc1	·	4.1	i	-0.1	-3.8	0.648	·
CC12CCC(O)CC1CCC1C2CCC2(C)C(C3=CC(=O)OC3)CCC12O (stereo unspecified)	-2.7%	·	i	0.8	·	·	4.0
CCN1CCN(S(=O)(=O)c2ccc(Cl)nc2)CC1	8.1%	-1.0	·	·	?	0.68	0.8
O=C(C1CCC(=O)N1Cc1ccc(F)cc1)N1CCC2(CC1)OCCO2 (stereo unspecified)	1.1%	-1.6	·	·	-2.1	0.71	1.6
CN(C)CC1CSCCC1(O)c1ccc(C(F)(F)F)cc1 (stereo unspecified)	-1.7%	3.3	i	-2.4	0.0	0.721	1.9
O=c1[nH]c(=O)n(C2CCCCCC2)c(O)c1C=NCC1CCCO1 (stereo unspecified)	?	4.7	·	·	0.8	0.752	1.8
CCCC(C)(COC(N)=O)COC(=O)NC(C)C (stereo unspecified)	2.2%	1.2	i	-6.0	-4.2	0.683	1.3
COC(=O)C1=C(c2ccc3ccccc3c2)C[C@@H]2CC[C@H]1N2C(=O)NCCCOC(C)C	·	0.4	i	2.6	·	·	-0.1
COc1ccccc1OP(=O)(Nc1cccnc1)Oc1ccccc1OC	·	0.6	i	1.7	4.8	0.707	-12.7
CC(=O)N1CC(=O)Nc2ccc(Cl)cc2C1c1ccccc1 (stereo unspecified)	-9.1%	2.3	i	1.3	3.5	0.681	3.3
O=C(Cn1c(=O)c(C(F)(F)F)nc2ccccc21)N1CCC2(CC1)OCCO2	0.9%	-39.7	i	-121.2	4.0	0.655	0.5
CCCCn1c(C)c(C(=O)O)c2cc(OC)c3ccccc3c21	0.2%	-22.0	i	0.4	-3.7	0.704	-1.8
CCCCn1c(O)c(/C(C)=N/NC(=O)Nc2ccccc2)c(=O)[nH]c1=O	-5.8%	4.8	i	-1.0	-0.3	0.683	-0.7
O=C1NC(=O)N(c2ccc3c(c2)OCO3)C(=O)/C1=C\c1ccc(N2CCCCC2)o1	·	28.7*	i	-2.9	-10.1	0.71	169.3
CN(C)C(=O)Oc1c(Cl)cc(Cl)c2cccnc12	-3.1%	2.1	i	-2.2	-3.0	0.675	-2.9
COc1ccc2[nH]c3c(c2c1)CCNC3C (stereo unspecified)	·	4.3	i	5.0	-3.8	0.682	2.8
COC(=O)C1=C(c2cccc(Cl)c2)C[C@@H]2CC[C@H]1N2C(=O)N1CCCC1	·	-0.6	i	4.0	·	·	2.3
c1ccc2c(NC3=NCCS3)cccc2c1	1.9%	1.3	·	·	0.0	0.655	-4.5
S=C(NCCc1ccccc1)N1Cc2cc(-c3ccccc3)ccc2-n2nncc2C1	·	·	i	-4.6	·	·	-0.5
Cc1ccccc1N1CCN(Cc2ccc3c(c2)OCO3)CC1	·	2.8	i	5.8	-2.0	0.61	0.2
COC(=O)C1=C(c2c(C)noc2C)C[C@@H]2CC[C@H]1N2C(=O)N1CCc2cc(OC)c(OC)cc2C1	·	3.5	·	·	·	0.771	1.9
Cc1cc(/C=C2\C(=O)NC(=O)N(c3cccc(Br)c3)C2=O)c(C)n1C	·	2.8	·	·	?	0.728	-0.1
C[C@@H]1CN([C@@H](C)CO)C(=O)CCCn2cc(nn2)CO[C@H]1CN(C)C(=O)Oc1cccc2ccccc12	0.2%	·	i	-4.0&0.4	·	·	-1.0

# Part of the list above in a different format.
# Order of results – Vif A3G	UCH37 inh	FGF22 binding	AF4-AF9 inh	RanGTP-Imp inh	E coli growth	HNF4A DNA FP
O=C(c1cc(F)ccc1F)C1CCCN(Cc2cccc(Cl)c2)C1 (stereo unspecified)
    1.6%	1.6	i	-0.2	2.2	0.674	-0.6
O=C1NC(=O)C(=Cc2coc3ccccc3c2=O)C(=O)N1
    8.2%	-24.6	i	-3.7	-0.8	0.62	-2.7
CCOc1ccc(N=C2SCCCN2C)cc1
    11.4%	1.6	·	·	-2.2	0.705	0.5
CCn1c(O)c(C=NCCN2CCOCC2)c(=O)n(CC)c1=S
    -2.0%	10.6	i	-2.3	7.2	0.678	3.3
CCOC(=O)C1(CCOc2ccccc2)CCN(Cc2cccc(O)c2)CC1
    ·	5.0	i	3.6	?	0.702	2.0
COc1cccc(-n2c(C)nc3ccccc3c2=O)c1
    7.2%	0.4	·	·	?	0.694	0.1
CC(C)N1CCC2(CC1)NC(CO)(CO)CO2
    ?	1.4	·	·	-2.0	0.714	-2.5

# Screening data from PubChem.
